CSC inhib: cancer stem cell inhibition; AID 2717; cancer stem cell-like cells viability, luminescence; inhibition, % at 7.5 µM; 1.1% of 300,000 active;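 active = mean at 75% or more and at least half the replicates too; inconclusive = mean and replicates disagree; tested in HMLE shEcad cells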;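 note: 0% = median of negative and 100% = median of positive control wells; the first replicate is given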
Env fusion inh: blocks HIV Env-driven cell-cell fusion; AID 651610; 1.1% of 360,000 active; HeLa-JRFL Env/CEM21 cell fusion, luciferase; inhibition, % at 12.3 µM;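 active = mean replicate inhibition score of at least 50 and every replicate individually at or above 50; inconclusive = only one of the two criteria met; inactive = mean below 50 and not all replicates reaching 50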;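 note: 0% = plate neutral controls and 100% = maraviroc near 300 nM; one replicate is shown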
Rce1 inhib: inhibitors of yeast Ras-converting enzyme. Q03530. yeast membranes, quenched prenylated peptide cleavage fluorescence. calls only. 0.27% of 290,000 active;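 active = fall in fluorescence gain of 50% or more versus controls, with final raw signal at or below 3038400; inconclusive = same 50% fall but final raw signal above 3038400; inactive = fall in fluorescence gain under 50%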;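 note: plate controls were neutral control wells for no effect and wells lacking membranes for full effect; tested at 10 µM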
Target sequence (Q03530 whole entry, looked up): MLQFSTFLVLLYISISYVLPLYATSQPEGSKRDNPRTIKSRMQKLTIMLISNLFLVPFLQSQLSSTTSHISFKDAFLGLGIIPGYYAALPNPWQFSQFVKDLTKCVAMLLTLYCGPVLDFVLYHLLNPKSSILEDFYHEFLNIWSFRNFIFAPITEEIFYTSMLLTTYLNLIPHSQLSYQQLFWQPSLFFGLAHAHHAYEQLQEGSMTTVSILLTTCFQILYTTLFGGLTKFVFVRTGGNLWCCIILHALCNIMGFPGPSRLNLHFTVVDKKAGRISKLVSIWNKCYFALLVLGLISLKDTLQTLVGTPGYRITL
MT1-MMP act inh: blocks activation of human MT1-MMP. P50281. HT1080 RFP-PRO-GFP cells, GFP/RFP ratio fluorescence, overnight; percent of plate control window, DMSO zero. GFP/RFP ratio change, % at 20 µM. 0.061% of 360,000 active;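 active = GFP/RFP ratio change of at least 30% with cell ATP level not reduced by more than half and red fluorescence within 50% of control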; note: strong numbers were not always called active
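Test system: HT1080 RFP-PRO-GFP cells; Benchmarks: DMSO and RFP-L50D-GFP cell wells; Timing: cells overnight before dosing, compound overnight, 37 °C, 5% CO2; Compound: one 20 µM compound dose with 1% DMSO; Read-out: GFP/RFP fluorescence ratio.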
PABP polyA inh: PABP-poly(A) binding inhibition; PABP-poly(A) RNA binding, fluorescence polarization; P11940; inhibition, % at 35 µM; 1% of 290,000 active;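 active = 50% or more with normal probe brightness, or confirmed in later tests; inconclusive = above 50% with abnormal brightness, or retests that disagree; inactive = below 50% or failed in later tests; about a fifth of its hits are not listed in these tables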;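 note: calls also rest on retests at 20 µM and on dose response follow-up; controls were probe without protein and protein plus probe with vehicle; some compounds called inactive have numbers as strong as hits; many hits fall short of the cut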
Target sequence (P11940 whole entry, looked up): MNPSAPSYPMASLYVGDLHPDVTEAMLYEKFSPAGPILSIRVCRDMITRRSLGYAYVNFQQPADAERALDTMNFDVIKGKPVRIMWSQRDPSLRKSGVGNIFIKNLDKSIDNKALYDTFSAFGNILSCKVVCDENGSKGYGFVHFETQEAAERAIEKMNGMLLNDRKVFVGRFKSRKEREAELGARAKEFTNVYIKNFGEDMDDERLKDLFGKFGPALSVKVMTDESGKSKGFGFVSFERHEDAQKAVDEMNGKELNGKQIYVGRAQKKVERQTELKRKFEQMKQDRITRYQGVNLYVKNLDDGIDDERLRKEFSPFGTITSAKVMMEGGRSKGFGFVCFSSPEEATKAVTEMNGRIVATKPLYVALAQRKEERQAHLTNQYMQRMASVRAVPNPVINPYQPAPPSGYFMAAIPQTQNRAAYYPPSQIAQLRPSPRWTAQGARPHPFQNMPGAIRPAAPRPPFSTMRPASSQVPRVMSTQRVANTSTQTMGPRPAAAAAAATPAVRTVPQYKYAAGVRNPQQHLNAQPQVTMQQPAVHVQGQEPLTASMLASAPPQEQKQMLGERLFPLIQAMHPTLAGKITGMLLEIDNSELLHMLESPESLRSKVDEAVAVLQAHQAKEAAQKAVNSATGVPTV
Yeast UUG start: alters start codon recognition fidelity in yeast; activity score, % at 18.7 µM; S. cerevisiae UUG-firefly luciferase reporter, luminescence/redox ratio; AID 602363; 0.13% of 350,000 active;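 active = replicate mean at a twofold rise or more, about +100% in these data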;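 note: firefly luciferase made from a UUG start codon reports start codon fidelity; reporter light over untreated wells divided by growth signal over untreated wells; some hits fall short of that in this replicate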
eIF4H FP inh: inhibitors of RNA binding by human eIF4H; Q15056; eIF4H fluorescence polarization binding assay; inhibition, % at 35 µM; 0.94% of 290,000 active;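 active = 50% or more with normal probe brightness, or confirmed in later tests; inconclusive = above 50% with abnormal brightness, or retests that disagree; inactive = below 50% or failed in later tests; about a fifth of its hits are not listed in these tables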;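 note: calls also rest on retests at 20 µM and on dose response follow-up; 0% = protein and probe with vehicle and 100% = probe without protein; strong numbers were not always called active; many hits fall short of the cut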
eIF4H FP inh retest: recorded beside eIF4H FP inh, whose call it bears; inhibition, %; compound at 20 µM; confirmation average;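 mean of two retest wells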
PABP polyA inh retest: recorded beside PABP polyA inh, whose call it bears; inhibition, %; compound at 20 µM; confirmation repeats;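 mean of two retest wells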
MT1-MMP act inh RFP: recorded beside MT1-MMP act inh, whose call it bears; RFP signal change, %; measured here: RFP expression control read;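 0 = vehicle wells; hits needed this value within 50% of zero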
Starred values were filed as active, the others as inactive; i = inactive; ? = inconclusive; . = not tested or not shown; + = active, no number.

SMILES	CSC inhib	Env fusion inh	Rce1 inhib	MT1-MMP act inh	MT1-MMP act inh RFP	PABP polyA inh	Yeast UUG start	eIF4H FP inh	others
CCOc1c(OC)cccc1C1CC(=O)Nc2cc(OC)c(OC)cc21 (stereo not drawn)	-3	-9	i	1	-1	-9	-30	6
Nc1nonc1-n1nnc(C(=O)N/N=C/c2cccc(F)c2)c1CN1CCCCCC1	12	-6	i	-2	4	.	-11	.
O=C(Nc1cccc(S(=O)(=O)N2CCOCC2)c1)c1cccc(S(=O)(=O)N2CCCCC2)c1	.	-24	.	3	-7	.	10	.
Cc1cc(C)cc(C(=O)NCC(=O)NCCc2c[nH]c3ccccc23)c1	0	-6	i	0	5	-2	-8	-21
Nc1cc(=O)[nH]c(SCCSc2cc(Cl)ccc2Cl)n1	-9	69*	i	4	4	6	5	2
CN(Cc1ccccc1)C1CCNCC1	-14	-12	i	-1	3	9	-12	18
O=C(CN1CCN(C(=O)C2CCC2)CC1)Nc1ccc(F)cc1	-9	.	.	-6	1	.	-21	.
O=C(CSc1nc2ccccc2c(=O)n1NC(=O)Cc1ccccc1)NCc1ccccc1Cl	-4	5	i	-5	-3	-12	11	27
COc1ccc(S(=O)(=O)N2CCN(C(=O)c3cccc(Cl)c3)CC2)cc1	-1	.	i	2	1	8	-1	-6
COc1ccc(C(=O)Cn2c3ccccc3n3nc(CCC(=O)O)c(=O)nc23)cc1OC	-12	-20	i	1	-1	-4	.	7
COc1ccccc1C(NC(=O)C1CCCCC1)c1c(O)ccc2ccccc12 (stereo not drawn)	7	0	i	-3	-6	22	.	-11
CCCCSc1nnc(C)c(=O)[nH]1	.	.	i	3	1	3	0	-6
O=C(Oc1ccc(Cl)cc1N1C(=O)CCC1=O)c1ccco1	11	25	i	3	4	-4	-18	0
COc1ccc(NC(=O)C2(c3ccc(NC(=O)c4ccc(C)cc4)cc3)CCCC2)cc1	-2	.	i	0	3	10	-9	0
CC(C)c1cc(CN2CCN(Cc3ccc(F)c(F)c3)C(CCO)C2)[nH]n1 (stereo not drawn)	-3	5	i	3	3	-1	-12	-7
Cc1nn(Cc2ccccc2)c(C)c1NC(=O)c1noc2c1CCc1ccccc1-2	12	.	i	2	-9	-3	-1	-10
CCOC(=O)c1sc(N)c(C(N)=O)c1C	5	-10	i	-5	-2	8	-6	11
O=C(CC1C[C@H](C(=O)N2CCOCC2)[C@@]2(CCC3CCCC3)c3[nH]c4ccccc4c3CCN2C1=O)NCc1ccco1 (stereo partly drawn)	0	-64	.	-17	-12	.	18	.
CCC1Oc2ccc(C)cc2N(CC(=O)NCc2cccs2)C1=O (stereo not drawn)	-2	-7	i	0	-3	-10	.	7
CCCC(=O)Nc1nnc(CCc2ccccc2)s1	-4	7	i	0	4	3	-26	8
CCOc1ccc(C2Nc3cccc4cccc(c34)N2)cc1OC	-15	.	i	3	4	11*	.	103*	eIF4H FP inh retest=97*;PABP polyA inh retest=57*
Cn1c2ccccc2c(=O)c2ccc(F)cc21	-5	-144	i	-1	-1	5	-17	-6
Cc1ccc(S(=O)(=O)N(CCCN2CCCC2=O)Cc2cc3c(C)ccc(C)c3[nH]c2=O)cc1	-5	-13	i	0	-2	7	-4	-1
CC(=O)c1cccc(NC(=O)C2=CN3CCS(=O)(=O)N=C3C=C2)c1	-7	.	.	1	3	.	-9	.
CCOc1ccc(NC(=O)/C(C=Nc2ccccc2)=C(\C)O)cc1	18	-13	i	4	6	15	-1	10

The final 2 compounds of the part before lead into the next:
SMILES	CSC inhib	Env fusion inh	Rce1 inhib	MT1-MMP act inh	MT1-MMP act inh RFP	PABP polyA inh	Yeast UUG start	eIF4H FP inh	others
CC(=O)c1cccc(NC(=O)C2=CN3CCS(=O)(=O)N=C3C=C2)c1	-7	.	.	1	3	.	-9	.
CCOc1ccc(NC(=O)/C(C=Nc2ccccc2)=C(\C)O)cc1	18	-13	i	4	6	15	-1	10
COc1ccc(-n2c(SCC(=O)NC3CCCCC3)nc3ccsc3c2=O)cc1	-5	-48	i	-6	-1	-9	-16	-10
COc1ccc(NC(=O)C(=O)NCCC2CCCCN2S(=O)(=O)c2cccs2)cc1 (stereo not drawn)	43	.	i	-15	-18	.	-12	.
N#C/C(=C\c1c[nH]c2ccccc12)C(=O)NC1CCCC1	5	-16	i	3	-2	6	-1	7
COC(=O)C(O)(CC(=O)Nc1cc(Cl)ccc1Cl)C(F)(F)F (stereo not drawn)	-7	.	i	3	5	-8	-13	-5
Cc1ccccc1NC(=O)/C(C#N)=C\c1cccnc1	-11	.	i	-4	-3	0	-7	-7
CCCNC(=O)CSc1ccc(S(=O)(=O)N(C)C2CCCCC2)cn1	.	3	.	-1	-3	.	-5	.
CCOC(=O)c1ccc(Nc2cc(C)nc(-c3ccccc3O)n2)cc1	43	41	i	4	-10	22	20	2
COC(=O)c1cccc(NC(=O)CCCN2C(=O)NC3(CCCC3)C2=O)c1	.	-88	.	4	-2	.	-23	.
CCC1=C(OC(=O)N(CC)CC)N2C(=O)OC(=NCC(=O)OC)[C@]2(Cc2ccccc2)[C@H]2C1=CC[C@H]1C(=O)N(CC(=O)OC)C(=O)[C@H]12	-6	-5	i	-7	-3	2	-7	-6
COCC(=O)N1CCC(Oc2ccc(C(=O)N3CCCCCCC3)cc2)CC1	-7	7	i	0	-2	9	0	-3
COC(=O)c1ccccc1NC(=O)N1CCN(Cc2ccco2)CC1	1	-15	i	0	-1	-13	6	-12
CCCCN1C(=N)N([C@@H](CCC)CN2CCC[C@H]2CN2C(N)=NC[C@@H]2Cc2ccccc2)C[C@H]1[C@H](C)CC	10	23	.	2	4	.	-9	.
CC(=O)Nc1ccc(NC(=O)Cn2c(-c3ccc(F)cc3)cnc2SCC(=O)Nc2c(C)cccc2C)cc1	-8	-14	i	4	1	-5	-17	-4
CN(C(=O)c1ccc(NC(=O)Cc2ccc(NC(=O)C3CCN(C(=O)C4CCCC4)CC3)cc2)cc1)C1CC1	-4	22	.	-2	-4	.	1	.
CCOc1ccc(N2C(=O)C3C4C=CC([C@H]5CC45)[C@@H]3C2=O)cc1 (stereo partly drawn)	3	-34	i	3	6	-2	-16	-6
Cc1ccc(C(=O)N2CCN(c3ccccc3F)CC2)cc1NC1=NC2CS(=O)(=O)CC2S1 (stereo not drawn)	-21	-2	i	0	3	4	-12	7
CCCNS(=O)(=O)c1ccc(OC)c(Cl)c1Cl	.	-35	i	5	4	-7	-7	-13
Cc1ccc(-c2nc(CSc3nc4ccccc4c(=O)n3C)cs2)cc1	17	?	i	-2	-17	7	-3	6
C/C(=N/OC(=O)C1CC1c1ccccc1)c1ccccc1 (stereo not drawn)	-11	-1	i	4	0	-4	.	4
COc1ccc(NC(=O)CCS(=O)(=O)c2ccc(OC)cc2)cc1	-14	-25	i	-4	-4	1	-13	0
Nc1nonc1-n1nnc(C(=O)N/N=C/c2ccc(Cl)cc2Cl)c1CN1CCCC1	.	6	i	4	-1	2	-6	1
CC1CCCC(NC(=O)Cn2cc([N+](=O)[O-])ccc2=O)C1C (stereo not drawn)	.	5	.	-4	1	.	-20	.
CSCCC(=O)N1CCCC(N(C)CCc2ccccc2)C1 (stereo not drawn)	10	-16	i	1	-3	-10	-4	7
CC1CN(Cc2cc(=O)[nH]c(C3CC3)n2)CC(C)O1 (stereo not drawn)	1	-97	i	0	4	3	-13	9
CCC1=C2CC[C@H]3C(=O)NC(=O)[C@H]3[C@H]2[C@@]2(Cc3ccccc3)C(=NCC(=O)OC)OC(=O)N2C1=O	7	-9	.	1	-5	-1	-13	-7
Remaining list, next part
SMILES	CSC inhib	Env fusion inh	Rce1 inhib	MT1-MMP act inh	MT1-MMP act inh RFP	PABP polyA inh	Yeast UUG start	eIF4H FP inh	others
CN1CCN(NC(=O)c2cccc(Br)c2)CC1	-5	-6	i	0	1	20	-16	4
FC(F)C(F)(F)c1cc(-c2ccc(Cl)cc2)n[nH]1	-5	2	i	-6	-8	0	-3	3
CC1=[N+](C)N(c2ccccc2)C(=O)C1N=Cc1ccccc1Cl (stereo not drawn)	-7	-4	.	-1	2	2	-11	-6
Cc1nn(C)cc1CN1CCC(n2nccc2NC(=O)CCCc2ccccc2)CC1	-9	-1	i	-2	0	-12	-9	-2
CCNC(=S)N1CCn2cccc2C1c1ccc(F)cc1 (stereo not drawn)	-7	4	i	1	2	13	.	-1
Cc1c(C(=O)Nc2c(N)nc(SCC(=O)NCC3CCCO3)[nH]c2=O)cccc1[N+](=O)[O-] (stereo not drawn)	-10	.	i	3	6	7	-6	-4
CNc1nc(-c2cccc(C(=O)N(C)C)c2)cn2ccnc12	.	-11	.	1	6	.	-17	.
Cc1cccc(NC(=O)CCN2CC(C)OC(C)C2)c1 (stereo not drawn)	4	.	.	6	0	-1	-19	-9
Oc1ccc(-c2nc3ccccn3c2NCc2ccco2)cc1	-16	.	+	.	.	6	-6	5
CCc1nn2cc(-c3ccccc3)nc2s1	11	-183	i	1	1	-9	-62	-5
CC(C)CNC(CC(=O)O)c1ccccc1 (stereo not drawn)	-18	5	i	0	2	6	.	0
Cc1cc(C)n(-c2ccc(C(=O)OCC(=O)Nc3ccc(Cl)c(S(=O)(=O)N(C)C)c3)cc2)n1	-3	.	i	1	6	-11	-2	-1
C/C(=N\NC(=O)Cc1c[nH]c2ccccc12)c1ccc2ccccc2c1	14	-22	i	3	-1	-3	.	0
NS(=O)(=O)c1cnccc1Nc1cccc(Br)c1	-1	11	i	2	1	.	-1	.
Cc1ccc(S(=O)(=O)N2[C@@H](c3ccccc3F)C(C(=O)O)=CC[C@H]2c2ccc(C(C)C)cc2)cc1	2	-12	.	1	6	.	2	.
CCOC(=O)C1=CNS(=O)(=O)NC1c1ccc(Br)cc1F (stereo not drawn)	.	1	.	1	1	.	-13	.
O=C(CSc1nc(-c2ccccc2)nc2c1Cc1ccccc1O2)Nc1ccc(C(=O)O)cc1	.	1	.	3	6	2	.	98	eIF4H FP inh retest=-7;PABP polyA inh retest=0
Cc1sc2nc(CN3CCOCC3)nc(N3CCN(S(=O)(=O)c4ccccc4)CC3)c2c1C	.	-2	.	-6	-2	.	1	.
CCOC(=O)c1cccc(NC(=O)CCc2nc(-c3ccc(C)cc3)no2)c1	0	.	i	-5	-28	-17	-12	1
COCCN(Cc1ccccc1)C(=O)c1ccc2c(c1)NC(=O)CS2	.	-228	.	-3	1	.	-4	.
O=C(NCC(=O)N1CCN(C(=O)c2ccco2)CC1)c1ccc(Cl)cc1	-6	2	i	4	5	.	-1	.
CCOC(=O)C1C(=O)C=C(/C=C/c2ccccc2)CC1c1ccc(Cl)cc1 (stereo not drawn)	14	-47	i	0	-5	1	.	-8
CCN(CC)c1ccc(/C=N/NC(=O)Cc2nnc(NC(=O)Nc3ccccc3)s2)cc1	.	2	i	-8	-1	11	.	2
Cc1ccc(S(=O)(=O)c2nc(-c3ccco3)oc2NCC2CCCO2)cc1 (stereo not drawn)	7	-9	.	-2	2	-2	.	-7
CC(=O)Nc1ccc(NC(=O)C(F)(F)F)cc1	-18	3	i	-3	0	-8	-6	-4
S=C1NC2(CCCCC2)Nc2ccccc21	-15	13	i	-6	-3	29	.	14
CCOC(=O)c1cc(-c2ccc(F)cc2)n(CC(=O)N2CCCC2)c1C	-3	.	i	3	-1	6	-2	0
c1ccc2oc(NC3=NCN(CC4CCCO4)CN3)nc2c1 (stereo not drawn)	8	-40	i	3	7	5	-12	0
COc1cc(OC)cc(-c2c(-c3ccc(C(C)=O)cc3)c3cc(-c4cccc5[nH]ccc45)ccc3n2C)c1	.	-8	.	-10	-3	.	-6	.

An excerpt (hit frequency here may not be typical).
